# MARV entry inh: Marburg virus entry inhibition; hit rate 6.5% among 18,000; Marburg virus pseudotype entry/binding inhibition, cell-based; control for the full effect not named in the record; many of its hits are not listed in these tables; AID 720532; Potency, µM (series often up to 49.2 µM), without a hit: at the top dose activity change, negative = inhibition, usual class: inhibitors; active means well fitted inhibition curve with a large enough effect; inconclusive means small, poorly fitted or top-dose-only effect; inactive means no such curve, though single readings can be large or run the other way; tested in HEK293 cells; further: luciferase read-out
# LASV entry inh: inhibitors of Lassa virus binding or entry into cells | Lassa virus pseudotyped entry inhibition, cell-based qHTS; control for the full effect not named in the record; many of its hits are not listed in these tables | Potency, µM (doses to about 49.2 µM), inactives show at the highest dose activity change, negative = inhibition, usual class: inhibitors | hit rate 4.1% among 18,000; active = well fitted inhibition curve with a large enough effect; inconclusive = small, poorly fitted or top-dose-only effect; inactive = no such curve, though single readings can be large or run the other way; tested in HEK293 cells; further: luciferase read-out
# An asterisk follows results filed as active; ? = inconclusive; . = not tested or not shown; & = joins results of further samples; ! = a repeat was not active; [ ] = remark or other dose. On the % scale 0 is the no-effect control and ±100 the full control effect; potency means the concentration at half of the fitted maximal effect.
SMILES,MARV entry inh,LASV entry inh
O=C1CCC[C@@H]2CC(NCc3ccc(Cl)c(Cl)c3)C[C@@H]3CCN1[C@H]23 (stereo not given in full),?,?
CC1CC[C@@]23CCC4(C)[C@@]5(C)CCC6C(C)(C)C(O)CC[C@@]6(C)C5C=C[C@@]4(OC2=O)C3C1C (stereo not given in full),-18%,-1%
COc1ccc2[nH]cc(CCNc3nc(-c4ccc(C(=O)N(C)C)cc4)nc4ccccc34)c2c1,?,?
N#Cc1ccc2c(c1)C[C@]1(CCCCN3C(=O)c4ccccc4C3=O)Oc3c(c(=O)oc4ccc(F)cc34)[C@@H]2O1,-26%[8.59 µM],-24%[8.59 µM]
CC(C)C[C@H](NC(=O)[C@H](CCCCN)NC(=O)CNC(=O)[C@H](CC(C)C)NC(=O)[C@@H](NC(=O)[C@@H]1CSSC[C@H](N)C(=O)N[C@@H](CO)C(=O)N[C@@H](CC(N)=O)C(=O)N[C@@H](CC(C)C)C(=O)N[C@@H](CO)C(=O)N[C@@H]([C@@H](C)O)C(=O)N1)C(C)C)C(=O)N[C@@H](CO)C(=O)N[C@@H](CCC(N)=O)C(=O)N[C@@H](CCC(=O)O)C(=O)N[C@@H](CC(C)C)C(=O)N[C@@H](Cc1cnc[nH]1)C(=O)N[C@@H](CCCCN)C(=O)N[C@@H](CC(C)C)C(=O)N[C@@H](CCC(N)=O)C(=O)N[C@H](C(=O)N[C@@H](Cc1ccc(O)cc1)C(=O)N1CCC[C@H]1C(=O)N[C@@H](CCCNC(=N)N)C(=O)N[C@H](C(=O)N[C@@H](CC(N)=O)C(=O)N[C@H](C(=O)NCC(=O)N[C@@H](CO)C(=O)NCC(=O)N[C@H](C(=O)N1CCC[C@H]1C(N)=O)[C@@H](C)O)[C@@H](C)O)[C@@H](C)O)[C@@H](C)O,-1%,5%
Cc1ncc(CO)c(C=O)c1O,-1%&-4%&8%,-8%&-5%&-5%
CCOC(=O)C1Oc2ccccc2C(c2ccc(F)cc2)=C1C(=O)OC (stereo not given),?,-21%
COc1ccccc1-c1ccnc(-n2ncc(C(=O)N3CCN(C4CCCC4)CC3)c2-c2ccco2)n1,-20%,-14%
C=CCOC(=O)NC(c1ccc(F)c(F)c1)C(C(=O)COC)C(=O)OC (stereo not given),?,4%
C[C@H]1O[C@@H](n2cc(F)c(=O)[nH]c2=O)[C@H](O)[C@@H]1O,1%,?
CN(C)C(=O)c1ccc(-c2ccc3ncnc(NC4CCNCC4)c3c2)cc1,-11%,6%
COc1cc(-c2ccc(C(F)(F)F)cn2)cc2c1OCCN(S(=O)(=O)C[C@]13CC[C@H](CC1=O)C3(C)C)C2,?,13µM*
NC(=O)c1cccc(-c2cccc(OC(=O)NC3CCCCC3)c2)c1,32%[activator],-2%
CCCCN1CC(COCc2ccccc2)Oc2cccc(Oc3ccc(C(C)C)cc3)c2S1(=O)=O (stereo not given),-12%,-16%
COC(=O)C1CCN(Cc2ccc3c(c2)CN(C(=O)C(C)N2CCOCC2)CCO3)CC1 (stereo not given),-27%,0%
COC(=O)c1cn([C@H]2C[C@@H](C(=O)N3CCCCCC3)N(Cc3ccsc3)C2)nn1,-15%,0%
CCOC(=O)OC[C@H]1O[C@H](C#Cc2ccc(C)cc2C)C=C[C@H]1OC(=O)OCC,4%[8.59 µM],-8%[8.59 µM]
Cc1cnc(SCc2ccccn2)nc1C1CCCN(C(=O)c2ccc3c(c2)OCCO3)C1 (stereo not given),-10%,-1%
COc1ccccc1-c1ccc(C(=O)N2CCC(N3CCc4ccccc4C3)CC2)c(N(C)CC2COCCO2)n1 (stereo not given),1%,-9%
O=S1(=O)CCSCCN1Cc1cc(F)ccc1Br,23%,55%[activator]
Cc1cc(C)n(-c2cccc(C(=O)NCC3Cc4cccc(-c5cccnc5)c4O3)c2)n1 (stereo not given),0%,3%
N#CC(c1ccc(Cl)cc1)c1c(Cl)cc(-n2ncc(=O)[nH]c2=O)cc1Cl (stereo not given),-7%,?
O=C(NCCCCc1ccccc1)c1cccc(NC(=O)C2CCC2)c1,21%,.
OC1(c2ccc3c(c2)CN(Cc2ccccn2)CCO3)CCN(c2ccccc2F)CC1,5%,-18%
C[C@@H]1CC[C@H]2C(=O)N(Cc3cccc([N+](=O)[O-])c3)C[C@@H](O)CN2[C@@H]1c1cccc(Br)c1,?,.

# Other results:
SMILES,MARV entry inh,LASV entry inh
CCN(CCCc1ccccc1)CCCc1ccccc1,8.9µM*,?
CCOC(=O)C(c1ccc(OC)c(OC)c1)C1c2ccccc2C=C(C)N1C(=O)OC (stereo not given),-18%[8.59 µM],.
CCCCCC(=O)N1C[C@H](n2cc(-c3ccc(F)cc3)nn2)[C@@H](O)C[C@H]1c1ccc(OC)cc1,?,-30%
O=C(O)c1ccccc1Nc1ccccc1,15%&1%&17%,-5%&1%&1%
CC(CCN1CCCCc2nc(C)c(C)cc21)=NO[C@H](C)c1cn([C@H](CO)Cc2ccccc2)nn1,?,9%[8.59 µM]
CC1COC2=C1C(=O)C(=O)c1c2ccc2c1CCCC2(C)C (stereo not given),6%&2%,-16%&-15%
NCCCCCCC(O)(P(=O)(O)O)P(=O)(O)O,13%,2%
COC(=O)CCCc1[se]c2ccccc2c1I,19%,14%
CC(C)=O,15%,2%
O=C1OCCN1C(=O)[C@H]1[C@H](c2ccc([N+](=O)[O-])cc2)C(c2ccc(F)cc2)=NN1c1ccc(Br)cc1,?,?
O=C(O)C1CCCNC1 (stereo not given),3%,9%
c1ccc2c(c1)Sc1ccccc1N2CCN1CCCC1,?,-28%
CCC(=O)OC1(C)C(=O)C=C2C=C(CCCC(=O)OC)OC=C2C1=O (stereo not given),-6%,6%
CSC(N)=NCCCC(N)C(=O)O (stereo not given),0%,4%
O=c1c(O)c(Br)ccc2c(Br)c(O)c(O)c(O)c12,-27%,-11%
CCN(CC)c1ccc(/C=N/NC(=O)c2ccc(O)cc2)cc1,?,?
CO[C@]12C[C@@H](COC(=O)c3cncc(Br)c3)CN(C)[C@@H]1Cc1cn(C)c3cccc2c13,-3%&5%,5%&0%
CCCCN1C[C@H](c2ccc(OC)cc2)[C@@H](CC(=O)Nc2ccc(Br)cc2)C1=O,-13%,16%
CN1C(=O)[C@]23CC4=CC=C[C@H](O)[C@H]4N2C(=O)[C@@]1(CO)SS3,1.4µM*,2.5µM*
O=C1c2cccc(O)c2C(=O)c2c(O)cccc21,25%&4%,-5%&-13%
COc1ccc(-c2nc(C(=O)N3CCN(C)CC3)sc2-c2ccc(OC)cc2)cc1,?,-17%&2%
CCC(C)C(=O)OC1C(O)C2C(CN3CC(C)CCC3[C@]2(C)O)C2C[C@]34O[C@@]5(O)C(OC(=O)C(C)(O)CC)CCC3(C)C5C(OC(C)=O)C(OC(C)=O)C4[C@@]21O (stereo not given in full),3%,-10%
Cc1cccc(C(=O)NCc2nc(-c3cccc(NC(=O)c4ccoc4C)c3)oc2C)n1,?,?
COc1ccc(-c2coc3cc(OC(C)=O)cc(OC(C)=O)c3c2=O)cc1,2%,-12%
CC(C)=CCC[C@](C)(O[C@@H]1O[C@H](CO)[C@@H](O)[C@H](O)[C@H]1O)[C@H]1CC[C@]2(C)[C@@H]1[C@H](O)C[C@@H]1[C@@]3(C)CC[C@H](O[C@@H]4O[C@H](CO)[C@@H](O)[C@H](O)[C@H]4O[C@@H]4O[C@H](CO)[C@@H](O)[C@H](O)[C@H]4O)C(C)(C)[C@@H]3[C@@H](O)C[C@]12C,?,-20%

# New compounds follow
SMILES,MARV entry inh,LASV entry inh
COc1cc(OC)c2c(-c3cccc(-c4cccc(N)c4)c3)cc(=O)oc2c1,?,?
OC(c1cccnc1)c1ccc2c(c1)CN(Cc1cn(-c3ccccc3)nc1-c1ccccc1)CCO2 (stereo not given),?,?
Cc1ccc(S(=O)(=O)N2CCC(=O)N(CCOC(=O)Nc3ccc(C)c(C)c3)CC2)cc1,-20%,-20%
COc1ccc(NC(=O)C[C@H]2C(=O)N(Cc3ccccc3)C[C@@H]2C)cc1,24%,.
O=C(NC(O)C(Cl)(Cl)Cl)NC(O)C(Cl)(Cl)Cl (stereo not given),17%,10%
CCCCCCCCCOc1ccc2[nH]cc(CCN)c2c1,10µM*,35µM*!
O=[N+]([O-])c1cccc(COc2ccc(CO)cc2)c1,88%[activator],33%[activator]
C[C@@H]1C[C@H]2[C@@H]3CCC4=CC(=O)C=C[C@]4(C)[C@@]3(F)[C@@H](O)C[C@]2(C)[C@H]1C(=O)CO,?,-4%
CN(C)C(=O)n1nnnc1Cc1ccc(-c2ccccc2)cc1,?,-26%
CCCC[C@@H]1CN2[C@@H](CC[C@H](C)[C@@H]2c2ccc(Br)cc2)C(=O)O1,5%[8.59 µM],5%[8.59 µM]
COCC1CCCN(Cc2ccc3c(c2)CN(C(=O)c2ccc(-n4cccn4)cc2)CCO3)C1 (stereo not given),-20%,8%
O=C(c1cn(C2CCCN(Cc3cccc(Oc4ccccc4)c3)C2)nn1)N1CCCC1 (stereo not given),-7%,-12%
CCOC(=O)CCN1C(=O)[C@@H]2[C@H]3[C@H](O)[C@H](O)CC(=NNC(=O)OCc4ccccc4)[C@@H]3CC[C@H]2C1=O,29%[8.59 µM],.
Cc1ccccc1Nc1oc(-c2ccccc2)nc1-c1ccccc1F,2%,4%
CCCCCC(O)c1ccc([C@H]2CCC(=O)[C@@H]2CCCCCCC(=O)O)cc1 (stereo not given in full),-12%,-13%
CO[C@H]1[C@H](NC(=O)c2ccsc2)c2ccccc2C12CCN(Cc1cc(Cl)ccc1O)CC2,14µM*,-28%
CCn1c(C)nc2cc(NS(=O)(=O)c3ccccc3)cc(C(=O)N3C[C@@H](C)O[C@@H](C)C3)c21,5%,0%
CC(=O)OCC(=O)[C@]1(O)C(C)CC2C3CCC4=CC(=O)C=C[C@@]4(C)[C@]3(F)C(O)C[C@@]21C (stereo not given in full),8%,-10%
CCOC(=O)[C@H](CCc1ccccc1)N[C@@H](C)C(=O)N1[C@H](C(=O)O)C[C@H]2CCCC[C@@H]21,26%&3%,11%&-2%
O=c1cc(-c2ccc(O)c(O)c2)oc2cc(O[C@@H]3O[C@H](CO)[C@@H](O)[C@H](O)[C@H]3O)cc(O)c12,37%[activator],6%
COc1cc(=O)n2c(c1C(=O)NCc1ccco1)CCN(Cc1ccc3nsnc3c1)CC2,13%,-18%
O=c1cc(-c2ccccc2)[nH]c2cc(Cl)ccc12,-18%,?
O=C(O)CCc1ccc(NCc2cccc(Oc3ccccc3)c2)cc1,-16%,-11%
c1ccc2[nH]c(NCCCc3cnc[nH]3)nc2c1,7%,4%
Cc1ncc2c(c1CNC(=O)c1ccc3c(c1)OCO3)CCN(C(=O)c1cc3ccccc3o1)C2,?,-21%

# Full records, quoted from the list. Values in the order: MARV entry inh, LASV entry inh
# `COc1ccc(-c2coc3cc(OC(C)=O)cc(OC(C)=O)c3c2=O)cc1` across the screens: 2%, -12%
# `COc1ccc(NC(=O)C[C@H]2C(=O)N(Cc3ccccc3)C[C@@H]2C)cc1` across the screens: 24%, .

# New compounds follow:
SMILES,MARV entry inh,LASV entry inh
CC1O[C@@H](Oc2c(-c3ccc(O)c(O)c3)oc3cc(O)cc(O)c3c2=O)C(O)C(O)C1O (stereo not given in full),0%,3%
CCC1CN(CCNC(=O)c2cscn2)Cc2cc(OC)ccc2O1 (stereo not given),-12%,-8%
COC(=O)C1=C(C(=O)OC)[C@@H]2N(Cc3ccccc3)c3ccccc3[C@@]23C[C@@H](C(=O)OC)N(C(=O)c2cc(C)oc2C)C3=N1,?,-15%[8.59 µM]
O[C@H]1C[C@H](c2ccccc2)N(CC2CCCCC2)C[C@H]1n1cc(C2CC2)nn1,-30%,-26%
Cc1cnc(-n2ncc(C(=O)NCc3ccncc3)c2C2CC2)nc1-c1cccs1,-14%,-6%
O=C(Nc1cccc(Cl)c1)OCC#CCCl,11µM*,-29%
Nc1ncnc2c1ncn2CCOCP(=O)(O)O,-2%,0%
Nc1nc(/C(=C/CC(=O)O)C(=O)N[C@@H]2C(=O)N3C(C(=O)O)=CCS[C@H]23)cs1,-2%,-7%

# Compounds shown so far with fluorine, in the order listed:
SMILES,MARV entry inh,LASV entry inh
N#Cc1ccc2c(c1)C[C@]1(CCCCN3C(=O)c4ccccc4C3=O)Oc3c(c(=O)oc4ccc(F)cc34)[C@@H]2O1,-26%[8.59 µM],-24%[8.59 µM]
CCOC(=O)C1Oc2ccccc2C(c2ccc(F)cc2)=C1C(=O)OC (stereo not given),?,-21%
C=CCOC(=O)NC(c1ccc(F)c(F)c1)C(C(=O)COC)C(=O)OC (stereo not given),?,4%
C[C@H]1O[C@@H](n2cc(F)c(=O)[nH]c2=O)[C@H](O)[C@@H]1O,1%,?
COc1cc(-c2ccc(C(F)(F)F)cn2)cc2c1OCCN(S(=O)(=O)C[C@]13CC[C@H](CC1=O)C3(C)C)C2,?,13µM*
O=S1(=O)CCSCCN1Cc1cc(F)ccc1Br,23%,55%[activator]
OC1(c2ccc3c(c2)CN(Cc2ccccn2)CCO3)CCN(c2ccccc2F)CC1,5%,-18%
CCCCCC(=O)N1C[C@H](n2cc(-c3ccc(F)cc3)nn2)[C@@H](O)C[C@H]1c1ccc(OC)cc1,?,-30%
O=C1OCCN1C(=O)[C@H]1[C@H](c2ccc([N+](=O)[O-])cc2)C(c2ccc(F)cc2)=NN1c1ccc(Br)cc1,?,?
C[C@@H]1C[C@H]2[C@@H]3CCC4=CC(=O)C=C[C@]4(C)[C@@]3(F)[C@@H](O)C[C@]2(C)[C@H]1C(=O)CO,?,-4%
Cc1ccccc1Nc1oc(-c2ccccc2)nc1-c1ccccc1F,2%,4%
CC(=O)OCC(=O)[C@]1(O)C(C)CC2C3CCC4=CC(=O)C=C[C@@]4(C)[C@]3(F)C(O)C[C@@]21C (stereo not given in full),8%,-10%

# Screening results as filed in PubChem BioAssay.

# This is a subset, so the mix of outcomes need not match the whole.
